# AID504770: growth inhibitors of E. coli YBA685 in a screen for V. cholerae RctB (chromosome II replication) inhibitors; 130,000 compounds, 0.27% hits; z-score (no concentration beside the values); AID 504770; E. coli YBA685 rctB-dependent plasmid, OD600 growth, 3 h; stronger effect = lower value;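 active = z-score under -2 on both plates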;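 also: wells of about 30 µL received 100 nL stock; score is relative to mean and SD of the test wells; the first replicate is given; strong numbers were not always called active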
# CapD inh: inhibitors of Bacillus anthracis CapD enzyme. 140,000 compounds, 0.23% hits. z-score (no concentration beside the values). purified CapD enzyme, fluorescence intensity read-out; stronger effect = lower value; some hits fall short of the stated cut;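 active = z-score under -4 in either of two replicates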;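 also: stock transfer was 100 nL into about 40 µL; score is relative to mean and spread of the plate; one replicate is shown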
# Starred values were filed as active, the others as inactive; / = not tested or not shown; & = joins results of further samples. No enrichment for hits (roughly 0.37% active in at least one column).
nr	Structure	AID504770	CapD inh
1	Cc1cc(N2C(=O)CS/C2=C(/C#N)C(=O)C(C)(C)C)ccc1Cl	-0.1	/
2	CC(C(=O)NCCCN1CCOCC1)N1c2cccc3cccc(c23)S1(=O)=O (stereo not drawn)	0.15	/
3	CC1CCN(C(=O)C2CCN(S(=O)(=O)c3cnc[nH]3)CC2)CC1	-0.45	-0.24
4	O=C(Nc1ccccc1C(=O)O)c1cc(S(=O)(=O)N2CCOCC2)cs1	-0.8	-0.14
5	COc1ccccc1CNC(=O)CSc1nc2ccccc2n1S(=O)(=O)c1ccc(C)cc1	/	-0.56
6	Cc1sc2c(c1C)c(=O)n(-c1ccc(Cl)cc1)c(=O)n2CC(=O)NC1CCCCC1	1.1	1.2
7	CN(CCC#N)c1ccc(C=Nc2ccc(C(=O)O)cc2)cc1	0.05	-0.38
8	CC1CCN(C(=O)CCCN2C(=O)C(c3ccccc3)Oc3cccnc32)CC1 (stereo not drawn)	-0.25	-0.29
9	CCOC(=O)c1c(C)n[nH]c1C	/	0.095
10	Nc1ccn(C2CC(O)C(CO)O2)c(=O)n1 (stereo not drawn)	0.05	0.38
11	CCCCc1ccc(S(=O)(=O)NNC(=S)NCc2ccco2)cc1	1.8	-0.28
12	CCN(c1ccccc1)S(=O)(=O)c1ccc(CN2C(=O)c3cccnc3C2=O)cc1	0.05	0.64
13	COC(=O)C(NC=O)C(O)(Cc1ccccc1)C(F)(F)F (stereo not drawn)	-0.9	/
14	CC1=C(C(=O)N2CCCCC2)C(c2ccc3c(c2)OCO3)C2=C(CCCC2=O)N1 (stereo not drawn)	0.8	9.2
15	COc1cc2c3nc4n(c(=O)c3n(C)c2cc1OC)CCS4	0.7	/
16	O=S(=O)(NC1CCN(Cc2ccccc2Sc2ccc(Cl)cc2)C1)c1cc(Br)ccc1Br (stereo not drawn)	/	0.29
17	O=C(COc1ccccc1Cl)N/N=C/c1ccccc1C(=O)O	/	-0.53
18	O=C(Nc1ccccc1)C1=C(O)CC(c2ccco2)CC1=Nc1ccccc1 (stereo not drawn)	0.1	0.05
19	C[C@]12C=CC(=O)C=C1CC[C@H]1[C@@H]3C[C@@H](O)[C@](O)(C(=O)CO)[C@@]3(C)C[C@H](O)[C@@]12F	/	-0.35
20	N#CC1c2ccccc2C=CN1C(=O)c1ccccc1F (stereo not drawn)	0.85	-0.16
21	Cc1ccc(Cl)cc1N1CCN(C(=O)C2CCCN2c2nnc(N3CCCC3=O)s2)CC1 (stereo not drawn)	1.7	-0.27
22	COc1ccc(CCN(C)Cc2ccccc2C)cc1OC	1.1	0.03
23	COC(=O)C(C)N1C(=O)S/C(=C/c2ccc(C)o2)C1=O (stereo not drawn)	-0.45	-0.41
24	CCCNC(=O)N1CCN(Cc2ccc(F)cc2Cl)CC1	-1	-0.02
25	Cc1nnc(SCCn2c(N(C)Cc3ccccc3)nc3c2c(=O)n(C)c(=O)n3C)s1	1.6	-0.33
26	N#Cc1cccc(NCCN2CCNC2=O)n1	-1	122
27	Cn1c(=O)c2c(nc(N3CCCCC3)n2CC(O)COc2ccc(Cl)cc2)n(C)c1=O (stereo not drawn)	/	-0.8
28	CN1c2ccccc2C(=O)NC1c1cccc(C(F)(F)F)c1 (stereo not drawn)	-0.05	/
29	NC(N)=NC(N)=Nc1ccc(Oc2ccc(Cl)cc2)cc1	/	-0.075
30	c1ccc2c(NCC3CCCO3)nc(N3CCCCC3)nc2c1 (stereo not drawn)	1.1	/
31	O=C(O)CSCC(=O)Nc1nc(-c2cccs2)cs1	-0.2	/
32	Cc1cccc(/C=N/n2cnnc2)c1	0.6	0.87
33	CCOC(=O)C1CCN(C(=O)c2c[nH]c3ccc(S(=O)(=O)N(C)c4ccccc4OCC)cc3c2=O)CC1	/	3.1
34	CCOc1ccccc1CNC(=O)CC(C(=O)N1CCc2ccccc21)n1ccnc1 (stereo not drawn)	0.8	0.39
35	CC1CCc2oc3ccc(NS(=O)(=O)c4ccc5ccccc5c4)cc3c2C1 (stereo not drawn)	/	-0.98
36	CCC(C)NC(=O)c1ccc(OC(C)=O)cc1 (stereo not drawn)	0.05	0.29
37	Cc1ccc(-c2csc(NC(=O)N3CCOCC3)n2)cc1	/	0.075
38	CCOc1cc(S(=O)(=O)n2cccn2)ccc1F	2	/
39	Cc1ccc(C)c(Cn2c(CO)nc3ccccc32)c1	-0.55	0
40	Cc1oc(-n2cccc2)c(C#N)c1C(=O)NCc1ccc(Cl)cc1	-0.15	/
41	COc1cc(C(F)(F)F)nc2ccc(C)c([N+](=O)[O-])c12	/	-0.37
42	c1cnn(-c2nc(N3CCOCC3)nc(N3CCOCC3)n2)c1	/	-0.51
43	CON/C=C(\C=Nc1ccc(F)cc1)c1ncc(C(F)(F)F)cc1Cl	/	-1.7
44	COc1cccc2cc(C(N)=O)c(=Nc3cc(C(F)(F)F)ccc3Cl)oc12	/	0.03
45	C=CCNC(=O)C1=CC(c2ccc(C)cc2)=NS(=O)(=O)N1C	0.8	-0.43
46	CCOC(=O)c1cc2c(ccn2-c2ccc(F)cc2)n1CC(=O)NC1CCCCC1	0.75	/
47	COc1ccc2[nH]c(C(=O)NCCNc3cccc(C(F)(F)F)n3)cc2c1	-0.25	115
48	Cc1ccc2[nH]c(=O)c(CN(CC3CCCO3)C(=O)c3ccco3)cc2c1 (stereo not drawn)	0.35	27
49	CS(=O)(=O)N1CCn2c1nc1ccccc12	0.05	0.27
50	O=C1NC(=O)C2(C(=O)N1)C(c1ccccc1Cl)CC(O)CC2c1ccccc1Cl (stereo not drawn)	-0.9	0.32
51	O=C(NCCCN1CCCC1=O)c1ccc2c(c1)ncn2C1CCCCC1	-0.05	-0.15
52	CN(C)c1cccc(C(=O)N2CC3(C)CC2CC(C)(C)C3)c1 (stereo not drawn)	-0.25	/
53	Cn1cc(C=C2C(=O)OC3(CCCCC3)OC2=O)c2ccccc21	-0.25	-0.78
54	COc1ccc(N(C(=O)/C=C/c2ccc(OC)c(OC)c2)C2=CC3CCC(C2)N3C)cc1 (stereo not drawn)	0.1	0.08
55	O=C(/C=C/c1cnc2ccccc2c1)NCc1ccc(Cl)c(Cl)c1	/	-0.09
56	CC(=O)Nc1cc(C(C)(C)C)nn1C	2.2	/

# (next part)
nr	Structure	AID504770	CapD inh
57	CCN(Cc1ccccc1)C(=O)Cn1c(=O)n(C2CCCCC2)c(=O)c2ccccc21	-0.4	0.51
58	Cc1ccc2nc3c(cc(C(N)=O)c(=N)n3Cc3cccnc3)c(=O)n2c1	-0.65	-0.005
59	Cc1c(C)c(C)c(C(=O)C2CCN(C(=O)Nc3ccc(Cl)cc3Cl)CC2)c(C)c1C	-0.6	-0.43
60	O=S(=O)(c1ccccc1)N1CCC(c2nc(-c3ccncc3)no2)CC1	/	-0.28
61	N=c1c2c(-c3ccccc3)c(-c3ccccc3)n(Cc3ccco3)c2ncn1CCCN1CCOCC1	-0.7	3.2
62	COc1cccc(OC)c1C(=O)N1CCN(c2ncnc3scc(-c4ccccc4)c23)CC1	1.6	-0.68
63	Cc1cccc(C)c1NC(=S)NCCO	/	-0.62
64	N#CCc1nc2ccccc2o1	-0.4	-0.45
65	Cc1c(N)c(=O)n(-c2ccccc2)n1C	-0.85	0.02&-0.64
66	CCN(CC)c1ncnc2sc(C(=O)N3CCC(C(N)=O)(N4CCCCC4)CC3)c(C)c12	/	-0.89
67	Oc1ccc(Cl)cc1N=Cc1ccco1	0.65	0.13
68	c1ccc(CSc2ncn[nH]2)cc1	-0.3	0.45
69	CN(C)c1cccc(N=Cc2c(O)n(Cc3ccc(F)cc3)c(=O)[nH]c2=O)c1	-0.5	0
70	O=C(NC1CC1)c1c[nH]c2ccc(S(=O)(=O)Nc3cccc(C(F)(F)F)c3)cc2c1=O	0.4	4.4
71	COc1ccc(S(=O)(=O)N(CC(=O)O)C2CCCCC2)cc1OC	-0.15	/
72	CNC(=O)COc1ncnc2sccc12	0.3	/
73	CCN(CC)c1ccc(C(C2=C(O)CC(C)(C)CC2=O)C2C(=O)CC(C)(C)CC2=O)cc1 (stereo not drawn)	/	-0.11
74	Cc1ccccc1SCC(=O)NC1CCOC1=O (stereo not drawn)	-0.55	/
75	Cc1c(C)n(C(=O)CSc2nnc(-c3ccccc3)o2)c2ccccc12	/	-0.15
76	C=CCn1cc(C(=O)OC)c(=O)c2cc(S(=O)(=O)N3CCCCCC3)ccc21	-0.8	0.22
77	FC(F)(F)c1ccc(N2CCCN(Cc3ccccc3)CC2)nc1	/	0.35
78	CN(Cc1ccccc1)S(=O)(=O)c1ccc(C(=O)Nc2nc3ccc4ccccc4c3s2)cc1	-0.55	2.4
79	CCSCCOC(=O)C1=C(C)N(C)C(=O)NC1c1ccccc1OCc1ccccc1 (stereo not drawn)	/	-0.095
80	COc1ccc2c(c1)NC1(O)c3ccccc3C(=O)C21O (stereo not drawn)	-0.8	/
81	CSC1=NCCN1C(=O)c1c(-c2ccccc2)noc1C	/	0.5
82	CCOC(=O)C1=C(CSc2nc(-c3cccs3)ccc2C#N)OC(N)=C(C#N)C1c1cccc(F)c1 (stereo not drawn)	/	18
83	COc1ccc(C2CC(c3ccccc3)=NN2S(=O)(=O)c2ccc(C)cc2)cc1 (stereo not drawn)	/	-0.61
84	Nc1nnc(CCS(=O)(=O)c2ccc3ccccc3c2)s1	-0.55	/
85	O=C(CSc1nc(-c2ccco2)cc(C(F)(F)F)n1)N1CCCC1	-1	/
86	CC(=O)N1N=C(c2ccc(C)cc2)CC1c1cc2cc3c(cc2nc1Cl)OCO3 (stereo not drawn)	-0.5	0.84
87	Cc1c(OCC(=O)NCc2ccccc2Cl)ccc2c3c(c(=O)oc12)CCC3	-0.75	0.73
88	COc1ccc(C2=NN3C(C2)c2cc(OC)ccc2OC3c2cccc([N+](=O)[O-])c2)cc1 (stereo not drawn)	/	-0.32
89	CN(c1ncnc2c1cnn2-c1ccc(Cl)cc1)C1CCCCC1	0.4	0.41
90	Cc1ccc2nc(-c3ccc(NC(=O)C4CCC4)cc3)sc2c1	-0.6	121
91	OCCN/N=C/c1cc(Cl)cc(Cl)c1O	-0.45	0.02
92	COCC1=C(C(=O)OC)C(c2cccnc2)C(C#N)=C(N)O1 (stereo not drawn)	/	2.1
93	Clc1ccc(C2=NC(c3ccc4c(c3)OCO4)NN2)cc1 (stereo not drawn)	/	-2.7
94	COc1ccc(S(=O)(=O)CCC(=O)N(C)c2cc(C)ccc2C)cc1	0.55	-1.3
95	N#Cc1ccc(COC(=O)CN2C(=O)CCOc3ccccc32)cc1	1.3	/
96	CNc1nc2c(C)cccn2c(=O)c1C=Nc1ccc(OC)cc1	-0.05	/
97	Cc1cc2c3c(C)n(C4CCCCC4)c(C)c3c(C)nn2c1	0.15	0
98	CSc1nc(-c2ccccc2)nc2c1Cc1ccccc1O2	-0.35	0.05
99	Cc1cc(C)c(C)c(Cn2c(CO)nc3ccccc32)c1C	0.45	-0.78
100	O=C(CCN1C(=O)/C(=C/c2ccc3c(c2)OCO3)SC1=S)Nc1cc([N+](=O)[O-])ccc1O	/	-2.2
101	CCC(C(=O)NC1CCCC1)n1c(C(=O)OC)cc2ccsc21 (stereo not drawn)	-0.1	0.53
102	CSc1n[nH]c(=O)n1-c1cccc(C(F)(F)F)c1	-0.15	0.51
103	CCN(CC(=O)Nc1ccc2c(c1)OCCO2)C(=O)CC1CCCC1	1.9	/
104	CCCCS(=O)(=O)NC1=NCN(CCOC(=O)c2ccccc2)CN1	-1.3	-0.03
105	Cc1ccc(S(=O)(=O)NCCC(c2ccc(F)cc2)c2ccco2)cc1 (stereo not drawn)	-0.2	-0.17
106	O=C1C=C(NNc2ccccc2)CCC1	-0.2	-3.3
107	O=S(=O)(Nc1ccc2c(c1)N(S(=O)(=O)c1ccc(Cl)cc1)CC2)c1cccc(C(F)(F)F)c1	/	-0.47
108	O=S1(=O)N=C(N2CCCC(C(F)(F)F)C2)c2ccccc21 (stereo not drawn)	-0.6	/
109	CC(NC(=O)/C=C/c1ccccc1)C1COc2ccccc2O1 (stereo not drawn)	-0.15	/
110	O=C(N/N=C/c1cc(Br)ccc1O)c1csc(CS(=O)(=O)Cc2ccco2)n1	/	-0.72
111	COC(=O)c1ccc(C(=O)OCCCc2nc3ccc(N)cc3[nH]2)cc1	0.3	0.53
112	CC(C)COC(=O)N1CCN(S(=O)(=O)c2ccccc2C#N)CC1	-0.55	/

# Continuation:
nr	Structure	AID504770	CapD inh
113	O=C(CCS(=O)(=O)c1cccc2nsnc12)NCc1cccs1	-0.5	0.3
114	O=C1C(=O)c2ccccc2C(O)=C1c1ccccc1F	1.8	-1.5
115	CCOC(=O)c1oc2ccc3c(C)cc(=O)oc3c2c1-c1ccccc1	1.1	1.9
116	COc1ccc(Br)cc1CCNC(=O)c1cc(=O)n(-c2ccccc2)[nH]1	/	0.24
